From PubChem BioAssay
VDR inh: Inhibitors of the vitamin D receptor (VDR): qHTS; Vitamin D3 receptor (Homo sapiens), P11473; VDR-SRC2-3 peptide fluorescence polarization, 2 h; Potency, µM, inactives show max response, negative = inhibition, usual class: inhibitors; 0.93% of 400,000 active; active means well fitted inhibition curve with a large enough effect; inconclusive means small, poorly fitted or top-dose-only effect, or another doubt; inactive means no such curve, though single readings can be large or run the other way; further: series mostly up to about 120 µM
Target sequence (P11473 whole entry, looked up): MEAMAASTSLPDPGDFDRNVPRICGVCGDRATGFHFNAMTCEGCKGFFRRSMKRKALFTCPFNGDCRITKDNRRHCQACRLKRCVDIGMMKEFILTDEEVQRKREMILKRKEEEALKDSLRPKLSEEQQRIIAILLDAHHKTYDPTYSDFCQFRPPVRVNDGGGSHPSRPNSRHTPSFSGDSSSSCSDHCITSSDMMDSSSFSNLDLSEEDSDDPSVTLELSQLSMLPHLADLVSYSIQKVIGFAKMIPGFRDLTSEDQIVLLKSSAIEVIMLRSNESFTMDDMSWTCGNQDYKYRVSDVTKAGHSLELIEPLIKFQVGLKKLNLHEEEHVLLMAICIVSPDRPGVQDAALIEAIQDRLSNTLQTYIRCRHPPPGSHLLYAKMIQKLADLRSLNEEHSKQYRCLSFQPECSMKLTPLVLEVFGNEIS
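Measured by FP: displacement of SRC2-3 coactivator peptide from VDR by library compounds, following a two-hour ambient incubation.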
* marks the source's active call; other numbers are inactive results; ? = inconclusive; & = joins results of further samples; [ ] = remark or other dose. On the % scale 0 is the no-effect control and ±100 the full control effect; potency means the concentration at half of the fitted maximal effect.

cpd	smiles	VDR inh
1	COCCN(C(=O)Cc1cccs1)C(C(=O)NC1CCCC1)c1cc(OC)c(OC)c(OC)c1 (configuration not stated)	3%
2	Fc1ccc(-c2csc3ncnc(Cl)c23)cc1	?
3	COc1cc(NC(=S)NCc2cccnc2)c(OC)cc1Cl	-2%
4	CN1CCN(C(=O)NC2CCCCC2)CC1	11%
5	Nc1nonc1C(=O)NCCc1ccccc1	-7%
6	CCC(=O)Oc1ccc(C(=O)Nc2cccc(C(=O)c3ccccc3)c2)cc1	5%
7	CCOC(=O)C1CCN(C(=O)c2ccc(N(C)S(=O)(=O)c3ccc(OC)cc3)cc2)CC1	9%
8	O=C(Nc1cccc(Br)c1)c1cc(S(=O)(=O)N2CCCCC2)c[nH]1	5%

Overlap with the part before: 2 compounds, then new ones.
cpd	smiles	VDR inh
7	CCOC(=O)C1CCN(C(=O)c2ccc(N(C)S(=O)(=O)c3ccc(OC)cc3)cc2)CC1	9%
8	O=C(Nc1cccc(Br)c1)c1cc(S(=O)(=O)N2CCCCC2)c[nH]1	5%
9	Cc1cccc(Cn2c(N3CCN(c4ccccc4)CC3)nc3c2c(=O)n(C)c(=O)n3C)c1	-5%
10	CCOC(=O)CC(=O)CSc1ccc2nnc(-c3ccc(C)cc3)n2n1	-15%
11	CCc1noc(C)c1C(=O)N1CCCC(N2CCN(c3cccc(Cl)c3)CC2)C1 (configuration not stated)	1%
12	CC(C)(C)c1ccc(Cn2ccc(-c3ccc4c(c3)OCO4)n2)cc1	1%
13	O=C1NC2(CCCCCC2)C(=O)N1Cc1ccccc1Cl	-14%
14	CC(C)C1Oc2ccccc2N(CC(=O)N(Cc2ccccn2)C2CC2)C1=O (configuration not stated)	-1%
15	CCc1ccc(NC(=O)Cn2nnc(C(=O)Nc3ccc(F)cc3)c2N)cc1	10%
16	CN(Cc1nc(-c2ccncc2)no1)S(=O)(=O)c1ccccc1	7%
17	Cc1cc(=O)oc2cc(OCC(=O)OCC(=O)Nc3ccccc3F)ccc12	-13%
18	CCCCC(=O)N1CCCC(c2nc3c(nnn3Cc3cc(C)ccc3C)c(=O)[nH]2)C1 (configuration not stated)	5%
19	CCOc1ccc(NC(=O)CS(=O)(=O)c2cn(C)c3ccccc23)cc1	0%
20	CCN1CCN(CCNC(=O)CCCCCn2c(=O)[nH]c3cc(C(=O)OC)ccc3c2=O)CC1	7%
21	Cc1cccc(CNC(=O)C2CCCN(c3nn4c(=O)cc(C)nc4s3)C2)c1 (configuration not stated)	0%
22	O=C(C[n+]1ccccn1)c1ccccc1	-7%
23	Cc1ccc(SCc2c(C#N)c3ccccc3n2C)cc1	-13%
24	COc1cc(CN2CCN(CCCSc3cc(C(C)(C)C)c(O)c(C(C)(C)C)c3)CC2)cc(OC)c1OC	-3%
25	CC(C)c1ccc(NC(=O)c2cc(S(=O)(=O)NCCc3ccccc3)ccc2F)cc1	-5%
26	O=P(COc1ccccc1)(c1ccccc1)c1ccccc1	-3%
27	OC(CNCc1ccc2c(c1)OCO2)COc1ccccc1 (configuration not stated)	-19%
28	CC(CN1CCOCC1)C(=O)O (configuration not stated)	1%
29	COc1ccc(C)cc1NC(=O)CNC(=O)Cn1ccc2ccccc2c1=O	-4%
30	O=C(CNC(=O)c1ccccc1F)c1ccc(Br)cc1	7%
31	O=C(c1cc(-c2ccc(Cl)cc2)on1)N1CCCCCC1	?
32	COCCC(=O)N1CCCC(C(=O)c2ccccc2SC)C1 (configuration not stated)	-5%
33	Oc1ccccc1/C=N/NC(=S)NC1CC2C=CC1C2 (configuration not stated)	16%
34	Cc1ccc(CC(=O)Nc2nccs2)cc1	-13%
35	COc1ccc(C(=O)Nc2ccc([N+](=O)[O-])cn2)c(OC)c1	-14%
36	Cc1ccc(CCNC(=O)C2CCC(=O)N(CC3CCCCC3)C2)cc1 (configuration not stated)	-11%
37	CCN(CC)S(=O)(=O)c1cccc(C(=O)Nc2ccccc2C(=O)Nc2ccc(Cl)cc2)c1	13%
38	Cc1ccc(C(=O)NC2CCCC2)s1	5%
39	CCCN(C(=O)CCNC(=O)Cn1cnc2ccccc2c1=O)c1cccc(Cl)c1	0%
40	O=c1cc(Cl)c(-c2ccccc2)nn1Cc1ccc(Cl)cc1	-25%

Entries shown so far containing an NH in an aromatic ring, in the order listed:
cpd	smiles	VDR inh
8	O=C(Nc1cccc(Br)c1)c1cc(S(=O)(=O)N2CCCCC2)c[nH]1	5%
18	CCCCC(=O)N1CCCC(c2nc3c(nnn3Cc3cc(C)ccc3C)c(=O)[nH]2)C1 (configuration not stated)	5%
20	CCN1CCN(CCNC(=O)CCCCCn2c(=O)[nH]c3cc(C(=O)OC)ccc3c2=O)CC1	7%

Additional compounds follow:
cpd	smiles	VDR inh
41	Cc1cccc(C(=O)NCC(=O)NCCSc2ccc(Br)cc2)c1	-14%
42	COc1ccc2sc(-c3ccc(SC)cc3)c(-c3ccc(O)cc3)c2c1	2%
43	O=C1C/C(=C\c2c(F)cccc2Cl)N2CCC1CC2	-2%
44	Cc1ccsc1/C=N\NC(=O)c1n[nH]c2c1CCC2	3%
45	COc1cccc(COc2ccc(N(C)S(=O)(=O)c3ccccc3)cc2)c1	-8%
46	COc1ccc(-n2nc3c(c2NC(=O)c2ccc(Br)cc2)CS(=O)C3)cc1 (configuration not stated)	-4%
47	Cn1cnnc1SCC(=O)Nc1cc(S(=O)(=O)N2CCCCC2)ccc1Cl	-7%
48	COc1cc(/C(C)=N/NC(=O)CSc2nc3ccccc3[nH]2)ccc1O	-10%
49	COc1cc(OC)c(C2=NOC(C(=O)O)C2)cc1Cl (configuration not stated)	5%
50	COc1ccc(C(=O)NOCc2ccccc2)cc1	-2%
51	Cc1ccc(C(=O)NCC(=O)OCC(=O)NC2CCS(=O)(=O)C2)cc1C (configuration not stated)	3%
52	O=C(O)C1CCC(=O)N1C1c2ccccc2Oc2ccccc21 (configuration not stated)	-5%
53	O=C1/C(=C\c2ccccn2)SC(=S)N1c1ccc(S(=O)(=O)Nc2nccs2)cc1	-5%
54	Cc1ccccc1/C=N\NC(=O)c1csnn1	16%
55	Cc1c(C(=O)NCC(c2ccco2)N(C)C)oc2c(Cl)cccc12 (configuration not stated)	-8%
56	O=C(CCNC(=O)C1CCN(S(=O)(=O)c2ccc(F)cc2)CC1)NCCc1ccc(Cl)cc1	-8%
57	CCc1ccc(OC(C)c2nc(-c3ccc(-n4cccc4)cc3)no2)cc1 (configuration not stated)	-11%
58	Cc1ccc(C)c(NC(=O)c2cc(S(=O)(=O)N3CCCc4ccccc43)ccc2F)c1	11%
59	CCOC(=O)c1nnn(-c2nonc2N)c1-c1ccc(OCC)cc1	10%
60	COc1ccc(C(=O)C2CCCN(C(=O)c3ccnn3C)C2)cc1OC (configuration not stated)	20%
61	COc1ccc(N2C(=O)C(OC(C)=O)C2c2ccc(C)cc2)cc1 (configuration not stated)	-8%
62	CCN(CC)C(=O)COc1coc(CN2CCN(Cc3ccccc3)CC2)cc1=O	-9%
63	C=CCNC(=O)CSc1nc2sccc2c(=O)n1-c1ccccc1	3%
64	COc1ccc(C2CC(=O)N3CN(c4ccccc4F)CSC3=C2C#N)cc1OC (configuration not stated)	32µM*
65	COc1ccc(NC(=O)CSc2nc3[nH]c(=O)cc(O)c3s2)cc1OC	-21%
66	Cc1cc(C)n(-c2nc3ccccc3n3c(C)nnc23)n1	7%
67	CCn1c(SCC(=O)N2CCCc3ccccc32)nc2ccccc2c1=O	-1%
68	COc1ccc(C)cc1NC(=O)N(C(C)C)C1CCN(C(C)=O)CC1	2%
69	CCc1ccccc1N1CC(c2nnc(NC(=O)c3ccco3)s2)CC1=O (configuration not stated)	14%
70	COc1ccc(-c2noc(-c3ccoc3C)n2)cc1OC	7%
71	Cc1ccc(/C=C/C(=O)Nc2ccc(O)c3c(=O)cc(-c4ccccc4Cl)oc23)cc1	-5%&5%
72	O=C(CSc1nccn1-c1ccc(F)cc1)NCc1ccc2c(c1)OCO2	6%
73	CSCc1nc2sc(C(=O)Nc3nc(C)cs3)c(C)c2c(=O)[nH]1	-1%
74	N/C(=N\O)c1cccc(CS(=O)(=O)c2ccccn2)c1	-8%
75	CCOC(=O)C1CCN(S(=O)(=O)CCNC(=O)c2cccc(OC)c2)CC1	7%
76	CC(=O)Nc1ccc(S(=O)(=O)NCc2ccc(C(=O)NCc3ccc4c(c3)OCO4)cc2)cc1	3%
77	CCOc1ccc(-c2nnc(SCC(=O)N3CCCC3)o2)cc1	-12%
78	CCN(CCCNC(=O)c1cc2cc3cc(C)ccc3nc2s1)c1cccc(C)c1	7%
79	Cc1cc(Nc2ccccc2)n2nc(C)c(-c3ccccc3)c2n1	-4%
80	O=C(NCCCN1CCOCC1)c1cc2cc(Br)ccc2oc1=O	3%
81	O=C(/C=C/C=C/c1ccccc1)c1ccco1	?
82	Cc1ccc(-c2nc3ccccc3s2)cc1NC(=O)c1cc(-n2cnnc2)ccc1Cl	-5%
83	CCc1ccc(N2CC(C(=O)Nc3ccc(F)cc3)CC2=O)cc1 (configuration not stated)	2%
84	CCOc1ccc(/C=N/Nc2ccc(Cl)nn2)c(O)c1	-6%
85	COc1ccc2cc([C@H](C)C(=O)OCc3cn(CC(=O)c4ccc(O)cc4)nn3)ccc2c1	-2%
86	CC(C)N(C(=O)CSc1nnc(-c2ccc3c(c2)OCO3)n1C)C(C)C	5%
87	CN(CCOc1ccccc1)C(=O)c1cc(-c2ccco2)nc2ccccc12	?
88	CCS(=O)(=O)n1nc(-c2ccc(OC)cc2)nc1N	-6%
89	O=C(NNC1CC(=O)N(c2ccc3c(c2)OCCO3)C1=O)c1ccccc1 (configuration not stated)	-5%
90	CC(C)OP(=O)(c1ccc(N(C)C)cc1)C(Nc1ccccc1)c1ccccc1 (configuration not stated)	11%
91	Cc1cc(C)n(C(=O)c2ccc(C)c(Br)c2)n1	-21%
92	COc1cccc(C2N(c3ccc(Cl)c(Cl)c3)C(=O)C3CCCN32)c1OC (configuration not stated)	12%
93	COc1ccc(C(=O)COc2ccc3ccc(=O)oc3c2)c(OC)c1	-27%
94	COC(=O)Nc1ccc(SCC(=O)c2cccc([N+](=O)[O-])c2)cc1	?
95	Cc1ccc(NC(=S)NC2CCN(Cc3ccccc3)CC2)c(C)c1	-2%
96	COc1ccc(CCC(=O)OCC(=O)NC(=O)c2ccc(Cl)cc2)cc1	-1%

Other entries.
cpd	smiles	VDR inh
97	CC(C)c1ccc(NC2CCCN(C(=O)c3cnc4ccccn4c3=O)C2)cc1 (configuration not stated)	11%
98	COc1ccc(OC)c(CN2CCN(C(=O)CCC(=O)c3cccs3)CC2)c1	6%
99	Cc1ccccc1OCC(=O)Nc1c(C(=O)Nc2ccccc2F)oc2ccccc12	4%
100	Cc1ccc(S(=O)(=O)CCN2CCC(n3cccc3)CC2)cc1	0%
101	O=C(Nc1ccc(F)cc1F)N1CCCN(c2ccc(C(F)(F)F)cn2)CC1	2%
102	O=C(Nc1ccccc1F)c1ccn[nH]1	11%
103	C=CCN(Cc1ccco1)S(=O)(=O)c1ccc(Cl)cc1	12%
104	N#Cc1ccccc1NS(=O)(=O)c1cc2c3c(c1)CCN3C(=O)CC2	-12%
105	Clc1ccc(Cn2ncc3c(NCc4ccccc4)ncnc32)cc1	-9%
106	Cc1ccc(-c2noc(-c3ccoc3C)n2)cc1	2%
107	Cc1[nH]n(-c2ccc([N+](=O)[O-])cc2)c(=O)c1C=NCCN1CCN(C(=O)c2ccc(F)cc2)CC1	3%
108	COCC(=O)n1nc(-c2ccccc2)nc1NCc1cccs1	7%
109	O=[N+]([O-])c1cc(-c2nc(-c3ccccc3)no2)ccc1N1CCCCC1	3%
110	COc1ccc2c(=O)cc(CO)oc2c1	6%
111	O=C(Nc1ccccc1)N1CCC(C(=O)N(Cc2ccco2)Cc2cccs2)CC1	-18%
112	Cc1nc(SCC(=O)N2CC(C)OC(C)C2)nc(C)c1C (configuration not stated)	-4%
113	Cc1nnc(NC(=O)c2ccc(-c3cccc(C(F)(F)F)c3)o2)s1	34%[activator]
114	Cn1cccc1C(=O)NC(=O)COC(=O)c1ccccc1O	-4%
115	Cc1cc(N2C(=O)C(=O)/C(=C(/O)c3ccc(F)cc3)C2c2ccc(Cl)cc2)no1 (configuration not stated)	0%
116	CCC/C=C(\CCC)C(NC(=O)OCC(C)C)c1ccc(C(=O)OC)cc1 (configuration not stated)	-8%
117	O=C(NCc1ccccc1)c1ccc(C2SCC(=O)N2Cc2ccccc2)cc1 (configuration not stated)	10%
118	CC(=O)N1N=C(c2ccc(C)cc2)CC1c1ccc2c(c1)OCO2 (configuration not stated)	-6%
119	CC1Sc2ccc(S(=O)(=O)CCC(=O)NC3CCCCC3C)cc2NC1=O (configuration not stated)	1%
120	COc1cccc(N2C(=O)CC(NNC(=O)c3cccs3)C2=O)c1 (configuration not stated)	-5%

In the list so far, two have a CF3 group.
cpd	smiles	VDR inh
101	O=C(Nc1ccc(F)cc1F)N1CCCN(c2ccc(C(F)(F)F)cn2)CC1	2%
113	Cc1nnc(NC(=O)c2ccc(-c3cccc(C(F)(F)F)c3)o2)s1	34%[activator]

(list continues)
cpd	smiles	VDR inh
121	Cc1ccc(-n2c(C)cc(/C=N/NC(=O)c3ccncc3)c2C)cc1	6%
122	Cc1cnc(C(=O)OCC(=O)NC(C)C)cn1	25%
123	Cc1ccc2nsnc2c1S(=O)(=O)N1CCN(CCc2ccccc2)CC1	6%
124	O=S(=O)(N1CCCCCC1)N1CCNCC1	3%
125	CN1CCC(NC(=O)CCc2ccccc2)CC1	-5%
126	Cc1cc(C)n(/N=C/c2ccccc2O)c(=O)c1	18%
127	COc1ccc(-c2nnn(CC(=O)N(Cc3cccs3)C(C)C(=O)NCCC(C)C)n2)cc1OC (configuration not stated)	-2%
128	COC(=O)c1c(C)n(-c2ccc(OC)cc2)c2ccc(O)cc12	-10%
129	Cc1ccnc(NC(=O)CNC(=O)c2ccccc2)c1	5%
130	COc1ccc(NC(=O)c2sc3cc(C(F)(F)F)cnc3c2-c2cccs2)cc1	-18%

Not all compounds are listed (hit frequency here may not be typical).
